Bioassay records from PubChem.
Arbovirus inh – antivirals against arbovirus infection; AID 1251; inhibition, % at 10 µM; hit rate 0.37% among 200,000; arbovirus infection cell-based antiviral screen;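 active = inhibition from about 30%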;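 note: bluetongue infection of BSR cells; cell survival read as ATP light after 72 h; 0% = infected wells without compound and 100% = uninfected wells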
YopH inh – blocks Yersinia enterocolitica YopH tyrosine phosphatase | fluorescence Ex485/Em525 | inhibition, %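 (about 10 µM by stock and volumes)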 | hit rate 0.16% among 140,000 | AID 898;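 active = inhibition of 50% or more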;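 note: controls were vehicle for no effect and minimum signal wells for full effect; inactives centre near -20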
RecA splice inh – blocks M. tuberculosis RecA intein splicing | hit rate 0.75% among 290,000 | P9WHJ3 | cell-free RecA intein splicing, fluorescence | AID 2221 | inhibition, %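 (about 9 µM by stock and volumes)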; in the data active = inhibition above about 30%; inconclusive = no clear call, values can overlap the other calls;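 note: 0% = vehicle wells and 100% = reference inhibitor control wells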
Target sequence (P9WHJ3 whole entry, looked up, canonical isoform): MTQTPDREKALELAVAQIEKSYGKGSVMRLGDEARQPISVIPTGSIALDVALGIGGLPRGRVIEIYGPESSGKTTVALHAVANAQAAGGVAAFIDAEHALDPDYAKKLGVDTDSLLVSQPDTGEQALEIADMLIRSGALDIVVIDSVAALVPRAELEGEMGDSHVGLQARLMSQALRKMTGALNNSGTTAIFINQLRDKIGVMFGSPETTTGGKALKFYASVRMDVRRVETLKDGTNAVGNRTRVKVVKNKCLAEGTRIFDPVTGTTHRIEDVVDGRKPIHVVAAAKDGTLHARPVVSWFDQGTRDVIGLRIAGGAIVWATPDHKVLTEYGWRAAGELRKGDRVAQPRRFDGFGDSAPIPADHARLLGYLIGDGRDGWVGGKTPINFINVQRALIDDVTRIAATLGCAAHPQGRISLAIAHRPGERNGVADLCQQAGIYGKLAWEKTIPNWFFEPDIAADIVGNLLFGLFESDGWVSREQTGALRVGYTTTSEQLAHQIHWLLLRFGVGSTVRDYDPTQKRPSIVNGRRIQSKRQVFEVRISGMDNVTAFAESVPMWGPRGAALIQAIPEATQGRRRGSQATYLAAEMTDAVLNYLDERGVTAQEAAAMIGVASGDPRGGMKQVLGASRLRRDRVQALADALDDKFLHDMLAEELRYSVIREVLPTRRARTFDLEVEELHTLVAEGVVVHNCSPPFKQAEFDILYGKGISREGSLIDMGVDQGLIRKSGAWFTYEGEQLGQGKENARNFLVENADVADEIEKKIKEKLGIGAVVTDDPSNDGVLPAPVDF
Mtb H37Rv – M. tuberculosis H37Rv growth inhibitors, H37Rv strain (AID 1626). hit rate 0.95% among 220,000. M. tuberculosis H37Rv growth inhibition; higher % means a stronger effect. inhibition, % at 10 µM; hits with a dose series show IC50 in µM;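 active = confirmed in a dose series; inconclusive = inhibition above 80% but not taken into the dose series; inactive = below 80% or under 30% at every dose of the series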;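 note: bacteria incubated seven days before Alamar blue readout; 0% = bacteria only wells and 100% = bacteria with antibiotic wells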
Mtb bLac sens – beta-lactam sensitization of Mtb H37Rv | inhibition, % at 25 µM | M. tuberculosis H37Rv growth with meropenem, percent inhibition; hits of this screen are not shown here | hit rate 0.27% among 330,000;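 active = about 74% or more and at least 40 points above the plate without the antibiotic, then above 30% in a dose series; inconclusive = first-round hits that could not be retested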;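 note: growth measured after seven days incubation then overnight dye step; 0% = bacteria only wells and 100% = bacteria with antibiotic; twin plates without the antibiotic show which effects depend on it; some results filed as inactive read as strong as hits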
Arbovirus inh repeat – recorded beside Arbovirus inh, whose call it bears; inhibition, %; measured here: 10K subset replicate screen; many hits read low in the repeat;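 first of two repeat runs on a subset; 0% = infected and 100% = uninfected wells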
Starred values were filed as active, the others as inactive; u = inconclusive; x = not tested or not shown. Not all compounds are listed, so the mix of outcomes need not match the whole.

SMILES	Arbovirus inh	YopH inh	RecA splice inh	Mtb H37Rv	Mtb bLac sens	others
O=P(NCc1ccccc1)(Oc1ccccc1)Oc1ccccc1	0.5	-42.8	-0.5	17.1%	-3.2
CCc1ccccc1NC(=O)c1cc2sccc2n1C	6.6	-42.9	3.4	11.9%	-2.2	Arbovirus inh repeat=6.8
O=C(CSCc1ccc(F)cc1)NCc1ccc2c(c1)OCO2	-13.9	x	-6.9	6.7%	0.4
Cc1cc(NS(=O)(=O)c2ccc(NC(=O)C(C)Oc3cccc(C)c3C)cc2)nc(C)n1 (centres undefined)	x	x	2.5	x	u
CCOC(=O)c1ccc(S(=O)(=O)N2CCNCC2)cc1	2.6	-29.7	1.5	-10.2%	8.8
CCN1CCN(c2cc(C)c3cc(NC(=S)NCCCN4CCc5ccccc5C4)ccc3n2)CC1	-22.3	x	-2.4	8.6%	41.7
NC(=O)C1CCN(C(=O)CCc2ccsc2)CC1	x	x	0.8	x	-1.9
Cc1onc(C(=O)N2CCN(Cc3ccccc3)CC2)c1[N+](=O)[O-]	-7.0	-26.4	-1.0	-5.4%	2.4
Cc1c(Br)c(C(=O)NCc2cc3cc(Cl)ccc3[nH]2)nn1C	-5.7	-8.0	-0.5	6.7%	19.4
COc1ccc(NC2=CC(=O)CC(C)(C)C2)cc1	x	x	-0.1	x	3.4
N#C/C(C(=O)Oc1ccccc1)=C1\C=CC=CN1	3.1	-49.2	1.0	-15.3%	1.7
COc1ccc(/C=C/CN2CCCC(C(=O)c3cc(F)ccc3F)C2)cc1 (centres undefined)	9.7	x	7.2	12.9%	-10.4
O=C1CCN(S(=O)(=O)c2ccc(Cl)cc2)CC1	x	x	-0.4	x	9.1
CC1(C)C(=O)N(c2ccccc2)C(=O)c2ccccc21	x	x	4.6	x	-1.9
CCCOc1ccc(C2C(C(=O)/C=C/c3ccco3)=C(O)C(=O)N2CCN2CCOCC2)cc1OC (centres undefined)	-1.1	x	-0.9	4.5%	-0.9

Three compounds from above, arranged by molecular weight, low to high.
SMILES	Arbovirus inh	YopH inh	RecA splice inh	Mtb H37Rv	Mtb bLac sens	others
O=C1CCN(S(=O)(=O)c2ccc(Cl)cc2)CC1	x	x	-0.4	x	9.1
CCc1ccccc1NC(=O)c1cc2sccc2n1C	6.6	-42.9	3.4	11.9%	-2.2	Arbovirus inh repeat=6.8
O=P(NCc1ccccc1)(Oc1ccccc1)Oc1ccccc1	0.5	-42.8	-0.5	17.1%	-3.2

Next structures
SMILES	Arbovirus inh	YopH inh	RecA splice inh	Mtb H37Rv	Mtb bLac sens	others
CS(=O)(=O)N1N=C(c2cccs2)CC1c1ccccc1 (centres undefined)	x	x	-1.7	-2.8%	-3.9
CC(C)C(NC(=O)c1ccco1)C(=O)NCC(c1ccco1)N1CCCCC1 (centres undefined)	3.2	-21.5	7.4	-1.1%	1.4
Cc1nnc(N/N=C/C(C)c2ccccc2)[nH]c1=O (centres undefined)	x	x	-7.5	-11.1%	-1.8
Cc1onc(-c2c(F)cccc2Cl)c1C(=O)NNC(=O)C1CCN(Cc2cccc(F)c2)CC1	-1.4	x	-4.0	-4.3%	-1.0
O=S(=O)(/N=C(/c1ccccc1Cl)N1CCOCC1)c1ccccc1	-1.0	-47.6	-3.5	3.3%	-5.3
O=C(N1CCOCC1)N1CCN(C(c2ccccc2)c2ccccc2)CC1	-2.7	0.8	3.8	0.3%	4.7
CCC(C)OC(=O)C1=C(C)NC(=O)CC1c1ccccc1OC (centres undefined)	-30.7	-48.2	-1.0	-5.1%	-10.8
CCCCNS(=O)(=O)c1ccc(NC(=O)c2c(-c3ccccc3Cl)noc2C)cc1	-18.4	-14.6	1.3	3.7%	-3.4
COC(=O)c1[nH]c2cc(OC)ccc2c1NC(=O)CN1CCN(c2cccc(C)c2)C(C)C1 (centres undefined)	-15.1	-13.0	12.6	7.4%	97.8
Cn1c(=O)[nH]c(=O)c2c1nc(N1CCCCCC1)n2CCOc1ccccc1	4.0	x	-1.4	-6.3%	0.4
COC(=O)C1=C(C)NC(=O)NC1c1ccc(-c2ccc(Cl)cc2)o1 (centres undefined)	4.3	x	2.0	-4.4%	1.4
Cn1c2ccccc2c(=O)c2c(=O)n(Cc3ccco3)c(COc3ccccc3)nc21	6.7	19.6	3.8	11.4%	4.6
COc1ccc(C2=Nc3ccccc3OC2)cc1	-11.4	-12.5	-0.2	u	97.7
CC1Sc2ccc(S(=O)(=O)N3CCC(C(=O)Nc4ccc(Cl)cc4)CC3)cc2NC1=O (centres undefined)	x	x	0.9	x	99.5
O=C1CCCC(O)=C1N=Nc1c(Cl)cc(Cl)cc1Cl	-8.1	4.0	-0.9	4.2%	7.2
O=C1CCC(C(=O)Nc2cccc3ccccc23)N1 (centres undefined)	2.0	-12.8	-1.2	x	-1.0
Cc1ccc(C(=O)N2CC3(C(C)C)CN(C(=O)c4ccc(C)cc4)CC(C(C)C)(C2)C3=O)cc1	1.3	4.3	2.1	x	-7.8
N/C(COc1ccc(F)cc1)=N\NC(=O)c1cccnc1Oc1ccccc1	5.7	-34.2	0.1	8.4%	0.5
CCOC(=O)Cc1csc(NC(=O)c2ccc(F)cc2)n1	x	x	2.1	x	7.6
CCSCC1COC(c2cccn2Cc2ccc(C)cc2)=N1 (centres undefined)	8.4	-45.5	11.7	9.9%	-2.3
O=C(COC(=O)c1ccc(S(=O)(=O)N2CCCC2)cc1)NCc1ccc(F)cc1	-3.2	-1.9	-2.8	1.5%	3.0
CCCCNCc1cc(Cl)c(OCCC)c(OCC)c1	-20.6	-23.4	-1.6	5.7%	-9.0
CCN(CC)c1ccc(NC(=O)CCCCCN2C(=O)c3ccccc3C2=O)cc1	-2.9	-34.2	-1.0	-10.5%	-2.2
Cn1c(SCC(=O)N2CCCc3ccccc32)nnc1-c1c[nH]c2ccccc12	7.1	-14.1	0.7	7.7%	-1.7
CCOC(=O)c1c(-c2ccccc2Cl)cn2ccccc12	4.9	-7.6	17.1	-5.1%	-2.3
CCOC(=O)CC(=O)Nc1nc2ccccc2s1	5.8	-25.1	x	5.6%	-2.4
CC(C)C(=O)NCCSc1c[nH]c2ccccc12	1.7	-32.2	-5.5	5.4%	-7.3
Cc1ccc2occ(C3NC(C(=O)O)CS3)c(=O)c2c1 (centres undefined)	-5.5	-16.6	-10.6	-5.1%	-1.5
CC(CCCC(C)(C)O)NCc1cn[nH]c1-c1ccc2c(c1)OCO2 (centres undefined)	-1.6	x	4.2	0.2%	3.7
O=C(NCCCO)C(=O)NCC1OCCCN1S(=O)(=O)c1cccs1 (centres undefined)	x	x	0.5	x	-7.9
Cc1cc([N+](=O)[O-])nn1CC(=O)N1N=C(C(F)F)CC1(O)C(F)F (centres undefined)	4.4	-16.8	0.2	-3.5%	0.3
O=C(CSc1nc2ncc(Br)cc2[nH]1)Nc1ccc2c(c1)OCO2	4.4	1.8	5.6	8.1%	97.6
CCCCC1C(=O)CC[C@H]2[C@@H]1CC(=O)[C@@H]2C/C=C\CCCC(=O)O (some centres undefined)	1.8	-42.9	11.6	-6.6%	-1.9
Cc1cccc(Cl)c1NC(=S)N1CCN(c2ccc([N+](=O)[O-])cn2)CC1	x	x	-1.1	-2.6%	-5.0
CC1(C(=O)NCCc2c[nH]c3ccccc23)C=CC2(CCCCC2)N1C(=O)c1ccccc1 (centres undefined)	x	x	5.2	x	-4.8
O=C(O)C1=C[C@@H](c2ccc(Br)cc2)C[C@@H](OCc2ccc(CO)cc2)O1	2.5	x	-0.2	-6.7%	-6.4
CCOC(=O)c1cc(S(=O)(=O)NCc2ccco2)cn1C	x	x	0.7	x	5.8
O=C(CCn1cccc1)Nc1ccc(F)cc1	-6.8	9.7	0.4	-2.9%	16.9
CN(Cc1cccc2ccccc12)C(=O)c1cc(COc2c(F)cccc2F)on1	5.9	x	8.6	16.0%	9.2
O=C(Nc1cccc(F)c1)NC1(C(=O)N2CCOCC2)CCCCC1	9.3	x	1.1	-3.8%	-3.3
O=C(OCC(=O)N1CCCCC1)c1cc2ccccc2cc1O	17.2	-2.5	-3.3	1.62µM*	98.6
CCCCCCOC(=O)C1=C(C)NC(=O)NC1c1ccc(O)cc1 (centres undefined)	-16.9	-15.0	3.5	-0.6%	-0.2
Cc1ccc(Cn2c(=O)c3c(nc4n3CCN4Cc3ccco3)n(C)c2=O)cc1	-1.5	-13.0	7.6	-9.8%	5.8
COc1cc(Cl)c(CN2CCCC(CO)(Cc3ccccc3F)C2)cc1OC (centres undefined)	x	x	-0.3	x	-2.1
O=C(O)CC(NC(=O)Cc1ccccc1)c1cc([N+](=O)[O-])ccc1Cl (centres undefined)	0.7	x	-1.7	3.7%	-2.1
O=C(CSc1nc(-c2ccco2)cc(C(F)(F)F)n1)NC1CCCC1	-3.2	x	1.5	1.5%	5.8	Arbovirus inh repeat=-5.0
N#Cc1ccc(-n2nnc3ccccc3c2=O)c([N+](=O)[O-])c1	x	x	-4.1	x	-7.5
O=C(NCCc1ccc(Cl)cc1Cl)c1cccnc1	x	x	-0.3	x	-1.2
C/C(=N\Nc1nc(C(C)(C)C)cs1)c1ccc(O)cc1	x	x	6.1	x	-0.8
O=C(NC1CCCC1)C1CCCN(S(=O)(=O)c2cccc3cccnc23)C1 (centres undefined)	-3.0	-22.6	-3.3	-3.3%	-2.9	Arbovirus inh repeat=3.3
CCCCC(=O)NC(c1ccccc1Cl)c1c(O)ccc2ccccc12 (centres undefined)	-6.3	-17.7	-9.6	-2.6%	5.1
CS(=O)(=O)N1CCC(Oc2ccccc2C(=O)N2CCNC(=O)C2)CC1	-1.5	x	-6.3	-10.5%	-0.8
CNC(=O)C1CCN(S(=O)(=O)c2c(C)noc2/C=C/c2cccc(C)c2)CC1	x	x	-1.5	x	5.9

Structures listed so far with a Cl atom:
SMILES	Arbovirus inh	YopH inh	RecA splice inh	Mtb H37Rv	Mtb bLac sens	others
Cc1c(Br)c(C(=O)NCc2cc3cc(Cl)ccc3[nH]2)nn1C	-5.7	-8.0	-0.5	6.7%	19.4
O=C1CCN(S(=O)(=O)c2ccc(Cl)cc2)CC1	x	x	-0.4	x	9.1
Cc1onc(-c2c(F)cccc2Cl)c1C(=O)NNC(=O)C1CCN(Cc2cccc(F)c2)CC1	-1.4	x	-4.0	-4.3%	-1.0
O=S(=O)(/N=C(/c1ccccc1Cl)N1CCOCC1)c1ccccc1	-1.0	-47.6	-3.5	3.3%	-5.3
CCCCNS(=O)(=O)c1ccc(NC(=O)c2c(-c3ccccc3Cl)noc2C)cc1	-18.4	-14.6	1.3	3.7%	-3.4
COC(=O)C1=C(C)NC(=O)NC1c1ccc(-c2ccc(Cl)cc2)o1 (centres undefined)	4.3	x	2.0	-4.4%	1.4
CC1Sc2ccc(S(=O)(=O)N3CCC(C(=O)Nc4ccc(Cl)cc4)CC3)cc2NC1=O (centres undefined)	x	x	0.9	x	99.5
O=C1CCCC(O)=C1N=Nc1c(Cl)cc(Cl)cc1Cl	-8.1	4.0	-0.9	4.2%	7.2
CCCCNCc1cc(Cl)c(OCCC)c(OCC)c1	-20.6	-23.4	-1.6	5.7%	-9.0
CCOC(=O)c1c(-c2ccccc2Cl)cn2ccccc12	4.9	-7.6	17.1	-5.1%	-2.3
Cc1cccc(Cl)c1NC(=S)N1CCN(c2ccc([N+](=O)[O-])cn2)CC1	x	x	-1.1	-2.6%	-5.0
COc1cc(Cl)c(CN2CCCC(CO)(Cc3ccccc3F)C2)cc1OC (centres undefined)	x	x	-0.3	x	-2.1
O=C(O)CC(NC(=O)Cc1ccccc1)c1cc([N+](=O)[O-])ccc1Cl (centres undefined)	0.7	x	-1.7	3.7%	-2.1
O=C(NCCc1ccc(Cl)cc1Cl)c1cccnc1	x	x	-0.3	x	-1.2
CCCCC(=O)NC(c1ccccc1Cl)c1c(O)ccc2ccccc12 (centres undefined)	-6.3	-17.7	-9.6	-2.6%	5.1
